GIRK2 activ: activators of human GIRK2 potassium channels. HEK293-GIRK2 thallium flux, Thallos fluorescence. calls only for hits at 25 µM. hit rate 0.05% among 63,000. AID 1259325;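 active means among the strongest 0.2% of first-round signals and kept after retests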;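 further: first round at about 10 µM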
Target sequence (P48051 whole entry, looked up): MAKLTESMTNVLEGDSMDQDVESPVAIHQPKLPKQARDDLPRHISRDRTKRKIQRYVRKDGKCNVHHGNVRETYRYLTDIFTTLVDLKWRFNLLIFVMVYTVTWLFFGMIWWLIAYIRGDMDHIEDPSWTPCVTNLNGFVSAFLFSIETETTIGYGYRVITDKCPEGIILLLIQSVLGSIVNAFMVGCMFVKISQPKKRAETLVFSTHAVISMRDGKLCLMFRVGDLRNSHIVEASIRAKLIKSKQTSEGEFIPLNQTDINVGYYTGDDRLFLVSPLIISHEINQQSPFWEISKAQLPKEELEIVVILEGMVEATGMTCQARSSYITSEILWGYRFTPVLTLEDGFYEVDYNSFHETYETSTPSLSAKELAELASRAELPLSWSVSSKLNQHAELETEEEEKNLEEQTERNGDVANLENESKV
Calls only; i = inactive.

SMILES	GIRK2 activ
O=C(NCCNS(=O)(=O)c1ccc(F)cc1)c1ccc(NC(=O)C2CC2)cc1	i
CCN(CC)CC#CCNC(=O)NCc1ccc(Cl)cc1	i
CCCn1c(=O)c2c(nc3n2CCCN3Cc2ccccc2)n(C)c1=O	i
CCCOc1cc(N2CCN(C(=O)Cc3ccc(Cl)cc3)CC2)nc(C)n1	i
CC(=O)CN1CCn2c1nc1c2c(=O)n(CC(C)=O)c(=O)n1C	i
CC(C)C(=O)Nc1c(-c2ccccn2)nsc1C(=O)NCc1ccco1	i
C=CCNC(=O)N1CCC(C(=O)Nc2cc(C)on2)CC1	i
CC(C)NCC(O)COc1ccc(Br)cc1Br (centres undefined)	i
COC(=O)N1CCC(CNC(=O)C(=O)Nc2cccc(N3CCCC3=O)c2)CC1	i
CCCCOc1ccc(C(=O)Nc2cc(-c3cccs3)nn2-c2nc(C)c(C)c(=O)[nH]2)cc1	i
O=C(NCc1ccc(Cl)cc1)C1CCN(c2ncccc2S(=O)(=O)N2CCOCC2)CC1	i
O=C(/C=C/c1ccc2c(c1)OCO2)N1C2CCC1COC2	i
Cc1ccc(S(=O)(=O)N2CCN(C(=O)CCn3nc(C)c(Br)c3C)CC2)cc1	i
CCOc1ccccc1NC(=O)C(=O)NCC(C)(O)c1ccc2c(c1)OCO2 (centres undefined)	i
Cc1noc(C2CN(CC(=O)Nc3ccccc3C(F)(F)F)C2)n1	i
COc1ccc(N2C(=O)C3N=NN(CC(=O)Nc4ccccc4Cl)C3C2=O)cc1 (centres undefined)	i
CS(=O)(=O)N1CCC(CNC(=O)C(=O)NCC2CCCO2)CC1 (centres undefined)	i
Cc1noc(CNC(=O)C2CCN(C(=O)CSc3nc4ccccc4o3)CC2)n1	i
O=C(CCCCCCC(=O)Nc1ccccc1)NO	i
O=C(C(c1ccccc1)n1cccc1)N1CCCC1 (centres undefined)	i

Structures shown so far containing four or more nitrogen atoms (12):
SMILES	GIRK2 activ
CCCn1c(=O)c2c(nc3n2CCCN3Cc2ccccc2)n(C)c1=O	i
CCCOc1cc(N2CCN(C(=O)Cc3ccc(Cl)cc3)CC2)nc(C)n1	i
CC(=O)CN1CCn2c1nc1c2c(=O)n(CC(C)=O)c(=O)n1C	i
CC(C)C(=O)Nc1c(-c2ccccn2)nsc1C(=O)NCc1ccco1	i
C=CCNC(=O)N1CCC(C(=O)Nc2cc(C)on2)CC1	i
COC(=O)N1CCC(CNC(=O)C(=O)Nc2cccc(N3CCCC3=O)c2)CC1	i
CCCCOc1ccc(C(=O)Nc2cc(-c3cccs3)nn2-c2nc(C)c(C)c(=O)[nH]2)cc1	i
O=C(NCc1ccc(Cl)cc1)C1CCN(c2ncccc2S(=O)(=O)N2CCOCC2)CC1	i
Cc1ccc(S(=O)(=O)N2CCN(C(=O)CCn3nc(C)c(Br)c3C)CC2)cc1	i
Cc1noc(C2CN(CC(=O)Nc3ccccc3C(F)(F)F)C2)n1	i
COc1ccc(N2C(=O)C3N=NN(CC(=O)Nc4ccccc4Cl)C3C2=O)cc1 (centres undefined)	i
Cc1noc(CNC(=O)C2CCN(C(=O)CSc3nc4ccccc4o3)CC2)n1	i

(more compounds)
SMILES	GIRK2 activ
COc1ccc(C2c3cccn3CCN2S(=O)(=O)c2ccccc2F)cc1OC (centres undefined)	i
Cc1ccc(S(=O)(=O)NC(C)Cn2cncn2)c(C)c1 (centres undefined)	i
COc1cc(OC)c(NC(=O)CSc2cc(-n3cccn3)ncn2)cc1Cl	i
CC(C)(C)c1ccc(C(=O)N2CCC(CSc3ccccn3)CC2)cc1	i
O=C(c1ccc(OC(F)(F)F)cc1)N1CC(c2nc(-c3ccncc3)no2)C1	i
O=C(CSc1nnc(N2CCN(C(=O)c3ccc4c(c3)OCO4)CC2)s1)Nc1ccccc1	i
O=C1CCC(=O)N1c1ccc(S(=O)(=O)NCc2ccco2)cc1	i
O=C(CSCc1ccccc1)NCC#CCOc1ccc2c(c1)OCO2	i
O=C(NCCCS(=O)(=O)N1CCN(c2ccccn2)CC1)c1cccc(F)c1	i
CC(C)OCCCNC(=O)c1cn(C)nc1S(=O)(=O)N1CCN(c2ccc(Cl)cc2)CC1	i
CCn1c(=O)c2ccccc2n(Cc2nc(-c3ccc(Cl)c(F)c3)no2)c1=O	i
Cc1ccc(CNC(=O)Cn2ccn(-c3cccc(Cl)c3)c(=O)c2=O)cc1	i
CCCC(=O)N1CCN(Cc2nnnn2-c2cccc(F)c2)CC1	i
Cc1cn2c3c(=O)n(CCCc4ccccc4)c(=O)n(C)c3nc2n1C(C)C	i
O=C(NCc1ccc(F)cc1)c1c2c(nn1C1CCS(=O)(=O)C1)CCC2 (centres undefined)	i
CS(=O)(=O)N1CCC(C(=O)N2CCN(CCn3cccn3)CC2)CC1	i
COc1ccc(NC(=O)Cn2c(=O)nc(-c3ccccc3F)c3cc(Cl)ccc32)cc1	i
CCN(C(=O)c1cccc(Cl)c1)C1C2CC3CC(C2)CC1C3 (centres undefined)	i
Cc1cccc(C)c1NC(=O)Cn1nc2n(C)c(=O)c3c(c(-c4ccccc4)cn3C)n2c1=O	i
NS(=O)(=O)c1ccc(C(=O)NCCOc2ccc(-c3ccccn3)nn2)cc1	i
COc1ccc(OC)c(NC(=O)C2=Cc3cc(Cl)cc(OC)c3OC=C2)c1	i
CC(=O)Nc1ccc(NC(=O)CCc2csc(NC(=O)c3ccc[nH]c3=O)n2)cc1	i
Cc1ccc(N(C)S(=O)(=O)c2ccsc2C(=O)Nc2ccc(OC(F)(F)F)cc2)cc1	i
O=C(NCC(F)(F)F)c1nnn(-c2ccc(NC(=O)c3ccco3)cc2)n1	i
O=C(Nc1ccc(F)cc1)OC1CCCC(NC(=O)c2cc(-c3ccccc3)on2)C1 (centres undefined)	i
COc1cccc(CNC(=O)c2snc(-c3ccccn3)c2NC(=O)C2CC2)c1	i
COc1ccc(CNC(=O)NCCc2cc(C)no2)cc1	i
COc1ccc(CNC(=O)NCc2nc(C)no2)cc1	i
Cc1noc(C)c1CSc1ncnc2sc3c(c12)CCCC3	i
O=C(NCc1ccc(F)cc1F)c1nnn(-c2ccccc2F)c1-c1cccnc1	i
O=C(CCN1C(=O)c2ccccc2C1=O)CN1CCC(Cn2c(C(F)(F)F)nc3ccccc32)CC1	i
O=C(c1cc(C2CC2)on1)N1CCC(Oc2ncccc2Cl)CC1	i
O=C(Nc1ccc(Cl)cc1)c1cccc(S(=O)(=O)N2CCOCC2)c1	i
Cc1csc(NC(=O)CN2CCN(CC(O)c3ccco3)CC2)n1 (centres undefined)	i
COc1cc(COCC2CCN(Cc3cccnc3)CC2)cc(OC)c1	i
CC(NC(=O)Cn1nc(C(=O)N2CCN(C)CC2)cc1-c1cccs1)c1ccccc1 (centres undefined)	i
COc1cccc(N2CC(C(=O)NCCn3ncccc3=O)CC2=O)c1 (centres undefined)	i
CC(CCc1ccccc1)NC(=O)C1COCC(=O)N1Cc1cccs1 (centres undefined)	i
COc1ccc(CC(=O)N2CCC(c3cccs3)CC2)cc1	i
CC(=O)Nc1sc2c(c1-c1nc3ccccc3s1)CCCC2	i
O=C(Cn1nc(-c2ccco2)ccc1=O)Nc1ccccc1-c1ccc(=O)[nH]n1	i
Cc1oc(-c2ccc(OC(C)C)cc2)nc1Cn1cc(-c2nc(-c3ccccc3F)no2)ccc1=O	i
COCCCNC(=O)CN(C)c1nc2c(C)ccc(C)c2s1	i
CC(=O)Nc1cnc(-n2ccnc2)nc1	i
Cc1ccc(S(=O)(=O)N2CCCSCC2CN(C)C)c(C)c1 (centres undefined)	i
CCCN(CCC)S(=O)(=O)c1cc2c3c(c1)CCN3C(=O)CC2	i
CCOC(=O)c1c(S(=O)(=O)Nc2cccc(OC)c2)n[nH]c1C	i
COCCNC(=O)N1CC(c2nc(-c3cccc(Cl)c3)no2)C1	i
CN1CCC(CNS(=O)(=O)c2ccc(C(C)(C)C)cc2)CC1	i
Cc1ccc(N(C)S(=O)(=O)c2cc(N(C)S(=O)(=O)c3ccccc3)c(C)cc2C)cc1	i
CCn1cc(C(=O)NCc2ccc(SC)cc2)c(S(=O)(=O)N2CCSCC2)n1	i
NC(=O)c1ccc(NC(=O)CN2CC(c3nc(-c4cccnc4)no3)C2)cc1	i
CC(C)n1ccc(C(=O)NCc2cn3ccccc3n2)n1	i
Cc1ccc(NC(=O)Cn2cccc(-c3nc(-c4ccccc4)no3)c2=O)cc1	i
COc1cccc(Cn2c(SCC(=O)Nc3ncn[nH]3)nc3ccccc3c2=O)c1	i
COc1ccc(OC)c2sc(N(CCCn3ccnc3)C(=O)Cc3ccccc3)nc12	i
CCCCc1ccc(S(=O)(=O)c2cnc(SCC(=O)NCc3ccc(F)cc3)[nH]c2=O)cc1	i
O=C(NC1CCN(C(=O)c2cc(-c3ccc(F)cc3)n[nH]2)CC1)c1ccc2ccccc2c1	i
CCc1nnc(C2CCN(S(=O)(=O)c3ccc(NC(C)=O)cc3)CC2)s1	i
COc1cccc(CC(=O)NC(C)Cc2cccs2)c1 (centres undefined)	i

Continuation:
SMILES	GIRK2 activ
COc1ccc(OC)c(NC(=O)COc2cc(C)nc(-c3ccc(F)cc3)n2)c1	i
COc1ccc2c(c1)c1nc(SCC(=O)Nc3cccc(F)c3)n(C)c(=O)c1n2C	i
O=C(NCC#CCOc1cccc(C(F)(F)F)c1)c1ccc(=O)[nH]c1	i
COc1cccc(CSc2nc(C)c(CC(=O)Nc3ccccc3SC)c(=O)[nH]2)c1	i
O=C(Nc1nc2c(s1)CN(S(=O)(=O)C1CC1)CC2)c1cnn(-c2ccccc2)n1	i
N#Cc1ccc2c(=O)c(S(=O)(=O)c3ccc(F)c(Cl)c3)c[nH]c2c1	i
COc1ccccc1CN1CCc2nc(SCC(=O)Nc3cccc(Cl)c3C)[nH]c(=O)c2C1	i
CS(=O)(=O)N1CCC(C(=O)N2CCN(c3ccc(-c4cccnc4)nn3)CC2)CC1	i
COc1cccc(S(=O)(=O)Nc2ccc(C(=O)N3CCCCC3C)cc2)c1 (centres undefined)	i
Nc1ccc(C#Cc2cncnc2Nc2ccc(OCc3cccc(F)c3)c(Cl)c2)cc1	i
Cc1c(NS(=O)(=O)N2CCCC2)c(=O)n(-c2ccccc2)n1C	i
COc1ccc(-c2cc(=O)n(CCNC(=O)c3c(F)cccc3F)cn2)cc1	i
Cc1nc2ccccc2n1CC1CCN(CC(=O)NCCc2ccccc2)CC1	i
CCCCn1c(-n2nc(C)cc2C)nc2c1c(=O)n(Cc1ccc(OC)cc1)c(=O)n2C	i
O=C(c1ccc(=O)[nH]c1)N1CCC(c2nnc(-c3ccco3)o2)CC1	i
Cc1cn2c3c(=O)n(CC(N)=O)c(=O)n(C)c3nc2n1-c1ccc(Cl)cc1	i
COCCNC(=O)Cc1ccc(NC(=O)Nc2ccc(OC)c(OC)c2)cc1	i
Cc1sc(NC(=O)C2CCCO2)nc1-c1ccc2c(c1)N(C)C(=O)CO2 (centres undefined)	i
CCOC(=O)c1cnn2ccc(NC(=O)c3ccc(OC(F)(F)F)cc3)cc12	i
O=C(CC1Sc2ccc(C(F)(F)F)cc2NC1=O)Nc1ccccc1C(F)(F)F (centres undefined)	i
Cc1ccccc1NC(=O)CN1CCC(c2nc(-c3cccs3)no2)CC1	i
COCc1nnc(NC(=O)c2ccc(C(C)(C)C)cc2)s1	i
CCN(CC)c1ccc(-c2noc(CN3CCc4ccccc4C3)n2)cn1	i
CCCC(=O)Nc1ccc(S(=O)(=O)Nc2ccc3c(c2)N(C(=O)c2ccccc2)CCC3)cc1	i
CC(C)(C)CC(=O)N1CCN(c2ncnc3c2nnn3-c2ccc(Cl)cc2)CC1	i
Cc1ccc(C)c(NC(=O)CN2N=NC3C(=O)N(c4ccc(C)c(C)c4)C(=O)C32)c1 (centres undefined)	i
O=C(Cn1nc(-c2cccs2)c2sc(N3CCCC3)nc2c1=O)NCc1ccccc1	i
COc1ccccc1C(=O)NCCc1nc(C)cc(C(F)(F)F)n1	i
O=C(CN1CCCCC1c1nc(-c2ccc(F)cc2)no1)NCc1cccs1 (centres undefined)	i
COC(=O)c1ccc(C(=O)N2CCC3(CC2)OCCS3)cc1	i
Cc1ccnc(NS(=O)(=O)c2ccc(NC(=O)CCC(=O)O)cc2)n1	i
CCC(C)NC(=O)Cn1c2ccccc2c2ncn(Cc3nc(-c4ccccc4)no3)c(=O)c21 (centres undefined)	i
CC(Cc1ccc(O)c(O)c1)(NN)C(=O)O (centres undefined)	i
CC(C)CNC(=O)COc1ccc(Cl)cc1Cl	i
Cc1cnc(-n2nnc(C(=O)Nc3nc4ccc(Cl)cc4s3)c2C)s1	i
COc1ccc(NC(=O)CSc2nccc(N3CCN(c4ccccc4OC)CC3)n2)c(OC)c1	i
CSc1ccc(/C=C2\C=C(CC(=O)NCc3cccc(N)c3)c3cc(F)ccc32)cc1	i
COc1ccc(NC(=O)C(=O)NC2CCCCCC2)cc1OC	i
Cc1cc(C(=O)NCC2CCN(c3cnccn3)CC2)no1	i
CNC(=O)CSc1nnc(N2CCN(C(=O)c3ccc([N+](=O)[O-])cc3)CC2)s1	i
Cc1ccc(NC(=O)Cn2cccc(-c3nc(-c4ccc(Cl)cc4)no3)c2=O)c(C)c1	i
N#Cc1cccc(C(=O)Nc2ccc(-n3nnn(CC(=O)N4CCOCC4)c3=O)cc2)c1	i
O=c1/c(=C\c2ccc(-c3ccccc3)o2)sc2nc(Cc3ccccc3)nn12	i
Cc1cc(C)n2nc(Nc3ccc(S(N)(=O)=O)cc3)nc2n1	i
CCOC(=O)c1cn[nH]c1S(=O)(=O)N1CCN(c2ccc(F)cc2)CC1	i
CCOC(=O)Oc1ccc2c(=O)c(Oc3cccc(OC)c3)coc2c1	i
O=C(Cn1cccc(-c2nc(C3CC3)no2)c1=O)c1ccccc1Cl	i
CCc1c(C#N)c(SCC(=O)Nc2cccc(C(C)=O)c2)nc2c1C(=O)CC(C)(C)C2	i
O=C(Cc1csc(-n2cccc2)n1)Nc1cc2ccccc2oc1=O	i
Cc1oc(-c2cccc([N+](=O)[O-])c2)cc1C(=O)Nc1ccc(F)cc1	i
C=CCCC(=O)NCc1cc(C)oc1C	i

As a short view, some entries already given:
SMILES	GIRK2 activ
Cc1ccc(NC(=O)Cn2cccc(-c3nc(-c4ccc(Cl)cc4)no3)c2=O)c(C)c1	i
N#Cc1cccc(C(=O)Nc2ccc(-n3nnn(CC(=O)N4CCOCC4)c3=O)cc2)c1	i

A portion of the library; rates above refer to the full screens.
